# Screening data (PubChem)
# Rango dissoc inh = prevents RanGTP from dissociating the Rango-importin beta complex | O95149+P62826 | Biochemical FRET Rango-importin beta, RanGTP-induced dissociation | Potency, µM (doses to about 46.1 µM), without a hit: at the top dose activity change, negative = inhibition | 340,000 compounds, 0.071% hits; active means falling FRET ratio curve, often poorly fitted, with flat reads before Ran was added; inconclusive means other falling curves, or compound fluorescence or quenching; inactive means flat or rising ratio curve;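 note: potency is the fitted concentration of half-maximal effect; % of control where 0% means no effect; nearly all actives have a fitted effect of over 45% in size; -100% = wells without RanGTP and RCC1; the record marks most hits as doubtful in a second field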
#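 Rango (0.1 uM)–importin beta (0.25 uM) complex; RanGTP-RCC1 trigger; 45 min RT; CFP/YFP FRET read.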
# miR-21 reporter = raises the signal of a miR-21 reporter; HeLa miR-21 FLuc reporter, luciferase, 48 h; Potency, µM (top dose mostly 38.3 µM), for the others: at the top dose reporter change, positive = more light; 340,000 tested, under 10 active; AID 2288; active = well fitted rising curve with a large enough effect; inconclusive = small, poorly fitted or top-dose-only effect; inactive = no such curve, though single readings can be large or run the other way;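 note: % of control where 0% means no effect; miR-21 action dims this reporter so a rising signal means less miR-21 action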
#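 HeLa cells stably expressing CMV-driven firefly luciferase with a downstream miR-21 binding sequence, endogenously expressing miR-21, were treated with titrations (up to about 40uM final) for 48 hours at 37 degree Celsius. Luciferase luminescence was read after lysis.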
# GLA inh pH 4.5 = alpha-galactosidase A (human) inhibition, pH 4.5. P06280. purified enzyme, 4-MU-alpha-Gal fluorescence, pH 4.5. activity change, negative = inhibition, % at 105 µM. 230,000 tested, under 10 active. AID 1467; inconclusive = small, poorly fitted or top-dose-only inhibition, or a rising curve; inactive = flat fitted curve, though single readings scatter; no compound was filed as active;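 note: 0% = full activity with enzyme and -100% = basal without enzyme; dose as in the result columns while the protocol names 77 µM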
# Target sequence (P06280 whole entry, looked up): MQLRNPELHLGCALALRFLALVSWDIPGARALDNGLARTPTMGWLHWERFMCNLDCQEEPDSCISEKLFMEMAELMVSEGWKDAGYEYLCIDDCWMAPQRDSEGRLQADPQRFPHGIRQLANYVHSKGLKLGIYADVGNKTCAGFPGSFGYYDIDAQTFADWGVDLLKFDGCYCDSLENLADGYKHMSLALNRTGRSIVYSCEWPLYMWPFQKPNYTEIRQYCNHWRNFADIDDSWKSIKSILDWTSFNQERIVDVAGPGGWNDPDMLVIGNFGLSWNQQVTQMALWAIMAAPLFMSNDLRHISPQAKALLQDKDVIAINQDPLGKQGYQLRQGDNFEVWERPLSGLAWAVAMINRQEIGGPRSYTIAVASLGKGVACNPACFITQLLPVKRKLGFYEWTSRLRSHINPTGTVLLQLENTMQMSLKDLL
# Rango-impB inh = Rango-importin beta binding inhibition; Q14974; Rango CFP/YFP FRET sensor + importin beta, 45 min; Potency, µM (highest dose often 92.2 µM), inactives show top-dose inhibition of complex formation; 340,000 compounds, 0.031% hits; active = rising FRET ratio curve, often small or poorly fitted; inconclusive = mostly compound fluorescence or quenching in the first reads; inactive = flat curves in all reads;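 note: potency is the fitted concentration of half-maximal effect; 0% = DMSO wells and 100% = buffer wells lacking importin beta; nearly all actives have a fitted effect of over 15% in size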
#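 FRET biosensor (snurportin 1 IBB flanked by EYFP and cerulean), 50 nM, with compound 5 min, then 0.125 microM importin beta in PBS, 1 mM DTT, 0.02% Tween-20, 0.1% BSA. CFP/YFP ratio read after 45 min at room temperature; pre-read flags interference.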
# An asterisk follows results filed as active; ? = inconclusive; nt = not tested or not shown; & = joins results of further samples.
Rango dissoc inh,miR-21 reporter,Structure,GLA inh pH 4.5,Rango-impB inh
2%,-6%,CC1CCN(C(=O)CSc2nc3[nH]ncc3c(=O)[nH]2)CC1,4,-1.1%
10%,-10%,CNC(=O)CCCc1nc(-c2ccccc2Cl)no1,-1,5.9%
9%,-2%,CC(/C=C/c1cccc([N+](=O)[O-])c1)=N/NC(=O)c1cccnc1,0,-2.5%
?,-8%,CC(OC(=O)c1oc2ccccc2c1COc1ccccc1)C(N)=O (stereo unspecified),7,?
0%,-3%,CN1CCC(N(C)C(=O)Cc2ccccc2[N+](=O)[O-])CC1,3,0.8%
-1%,-3%,CC(=O)OC(Cn1ccnc1)c1ccccc1 (stereo unspecified),3,-1.5%
-9%,22%,COc1ccc(NC(=O)c2cc(S(=O)(=O)N(Cc3ccccc3)c3ccccc3)ccc2Cl)cn1,0,-3.5%
7%,0%,CCOC(=O)C1(Cc2ccccc2)CCN(Cc2cccc3nccnc23)CC1,-2,0.9%

# Remaining list, next part
Rango dissoc inh,miR-21 reporter,Structure,GLA inh pH 4.5,Rango-impB inh
17%,-25%,CC1SC(c2ccc(F)cc2)N(CCc2ccccc2)C1=O (stereo unspecified),nt,2.6%
3%,-6%,O=C(NCc1ccc(F)cc1)C1CCCN(C(=O)NCc2ccccc2)C1 (stereo unspecified),nt,1.3%
13%,4%,CCCNCC(O)COc1ccccc1C(=O)CCc1ccccc1 (stereo unspecified),3&-4&-7,2.3%
5%,1%,COc1ccc(NC(=O)CSc2n[nH]c(N)n2)cc1OC,4,2.5%
-2%,-3%,CCOc1ccc(CCNC(=O)CCc2nnc3ccc(N4CCOCC4)nn23)cc1,nt,-0.7%
15%,-3%,Cc1ccc(S(=O)(=O)N(C)C)cc1NC(=S)NCCc1ccccn1,6,-0.6%
?,-48%,CCOc1ccc(/C=C2/C(=O)N(c3ccc(OC)cc3)C(=S)N2CC(=O)OC)cc1OCC,-9,?
?,-22%,Nc1ncnc2oc(-c3ccco3)c(-c3ccco3)c12,0,?

# Carrying on.
Rango dissoc inh,miR-21 reporter,Structure,GLA inh pH 4.5,Rango-impB inh
-2%,0%,CSCC(C)N1CCC(CO)(CCCc2ccccc2)CC1 (stereo unspecified),-4,?
21%,-5%,CCCc1nnc(SCC(=O)N2CCCCC2C)n1CC1CCCO1 (stereo unspecified),18,0.2%
-9%,nt,COc1ccc2c(c1)C(C)(CCN)C(=O)N2C (stereo unspecified),nt,-0.5%
?,-7%,CN1CC=C2C(C#N)=C(N)C(C#N)(C#N)C(c3ccsc3)C2C1 (stereo unspecified),0,?
8%,-22%,O=C(COc1cc(Cl)ccc1Cl)Nc1ccc2c(c1)CCC2,12,-0.5%
7%,nt,O=C(O)Cc1cccc(=O)c(O)c1C(=O)O,nt,0.7%
20%,0%,CCn1nc(C)c(NC(=O)CSc2nnc(-c3ccco3)n2C)c1C,-8,0.2%
-12%,nt,CCC1(CC)Cc2ccccc2-c2[nH]c(=S)[nH]c(=O)c21,nt,-0.2%

# (cont.)
Rango dissoc inh,miR-21 reporter,Structure,GLA inh pH 4.5,Rango-impB inh
-1%,0%,Cc1cc(C)n2nc(C(=O)N/N=C/c3ccc(Cl)cc3)nc2n1,7,3.1%
10%,-1%,CNC(=O)CSc1nnc(CCc2ccccc2)n1-c1ccccc1,-16,-2.9%
-22%,-4%,COc1ccc(NC(=O)Nc2ccccc2C)c(OC)c1,-16,-1.8%
-3%,3%,Cc1cc(NC(=O)CSc2ncnc3c2cnn3-c2cccc(Cl)c2)no1,4,-1.7%
-25%,-61%,O=C(c1ccc(-c2ccc([N+](=O)[O-])cc2Cl)o1)N1CCOCC1,2,9.4%
12%,nt,COC(=O)c1sc(S(=O)(=O)Nc2c(C)nn(C)c2C)c(C(=O)OC)c1C,nt,-1.0%
-16%,nt,COc1ccc(NC(=O)CN(C)C(=O)c2cccc(Oc3ccccc3)c2)cc1,nt,1.1%
-14%,-12%,O=C(OCC(=O)N1CCCc2ccccc21)c1ccc(Br)o1,9,0.4%

# Three neighbouring records from above:
Rango dissoc inh,miR-21 reporter,Structure,GLA inh pH 4.5,Rango-impB inh
12%,nt,COC(=O)c1sc(S(=O)(=O)Nc2c(C)nn(C)c2C)c(C(=O)OC)c1C,nt,-1.0%
-16%,nt,COc1ccc(NC(=O)CN(C)C(=O)c2cccc(Oc3ccccc3)c2)cc1,nt,1.1%
-14%,-12%,O=C(OCC(=O)N1CCCc2ccccc21)c1ccc(Br)o1,9,0.4%

# The listing continues:
Rango dissoc inh,miR-21 reporter,Structure,GLA inh pH 4.5,Rango-impB inh
-7%,-2%,CO/N=C(/C)CCS(=O)(=O)c1ccccc1,1,-0.3%
6%,-1%,COc1ccccc1N1CCN(CC(=O)Nc2ccc(C)c(F)c2)CC1,-8,-0.2%
-10%,-29%,Cc1ccccc1NC(=S)c1nc2ccccc2[nH]1,2,0.3%
3%,-8%,Cc1ccc(NCCC(=O)c2ccc(Cl)cc2)cc1,0,-0.9%
0%,nt,O=C(CNS(=O)(=O)c1ccc(Br)cc1Cl)OCC(=O)N1CCCC1=O,nt,-2.0%
31%,2%,C=CC#CC1(O)CC(C)[N+](C)(C)CC1C (stereo unspecified),4,0.0%
?,-29%,Cc1ccc(OCC(O)CN2CCOCC2)c(C)c1 (stereo unspecified),nt,4.7%
-8%,nt,O=c1cc(-c2cccc(F)c2)oc2ccccc12,nt,0.3%

# Additional entries
Rango dissoc inh,miR-21 reporter,Structure,GLA inh pH 4.5,Rango-impB inh
-2%,-3%,NC(=O)[C@@H]1CCCN1Cc1nc(Cc2ccccc2F)no1,-4,-1.0%
17%,15%,CCCCCCCN1C=CC(=O)CC1,0,-1.1%
-24%,3%,Cc1ccc(SC[C@H](C)CN2CC[C@H](C(C)(C)C)CCC2=O)cc1,nt,0.5%
15%,2%,COC(=O)c1ccc2c(=O)n(-c3ccccc3)c(SCN3C(=O)c4ccccc4C3=O)nc2c1,5,-1.4%
1%,-6%,COC(=O)Nc1sc2c(c1C(N)=O)CCC(C)C2 (stereo unspecified),-25,0.7%
-12%,0%,O=C(CCNC(=O)Cn1ccc2ccccc2c1=O)NCCN1CCc2ccccc2C1,-1,3.2%
9%,21%,Oc1ccccc1N=Nc1nc(-c2ccccc2)c(-c2ccccc2)[nH]1,-12,?
13%,16%,CCN(CC)S(=O)(=O)c1cc(NC(=O)C(C)N2CCc3ccccc32)ccc1C (stereo unspecified),-10,-2.2%

# More compounds follow:
Rango dissoc inh,miR-21 reporter,Structure,GLA inh pH 4.5,Rango-impB inh
0%,-4%,Cn1cc(Cl)c(C(=O)NC2CCCC2)n1,-7,?
14%,-20%,Cc1ccc(C(=O)Cn2nnc(-c3cccs3)n2)cc1,-1,6.6%
19%,-3%,CCc1nnc(NC(=O)CSc2nc3[nH]ncc3c(=O)[nH]2)s1,-2,0.8%
-1%,-25%,O=C(NCC1CCCO1)Nc1cccc(Cl)c1 (stereo unspecified),3,-0.4%
0%,nt,c1c[nH]c(CN2CCN(Cc3ncc[nH]3)CC2)n1,nt,-0.7%
nt,0%,O=C(O)CNS(=O)(=O)c1ccc(-c2ccccc2)cc1,6,nt
1%,nt,CN(CC(=O)Nc1cccc(S(=O)(=O)N2CCCC2)c1)CC(=O)Nc1ccc(F)c(F)c1F,nt,-0.4%
-19%,6%,CCC1=Nc2cc(C(=O)NCCCOC(C)C)ccc2Sc2ccccc21,-11,4.8%

# (list continues)
Rango dissoc inh,miR-21 reporter,Structure,GLA inh pH 4.5,Rango-impB inh
7%,-27%,Cc1nc(SCc2c(F)cccc2Cl)n[nH]1,-5,0.9%
6%,nt,Cc1ccc(S(=O)(=O)Nc2cccc(C(=O)NCC(c3ccccc3)N(C)C)c2)cc1F (stereo unspecified),nt,0.3%
-2%,-1%,COc1cccc(C(=O)N(Cc2ccc3c(c2)OCO3)Cc2nc3ccccc3c(=O)[nH]2)c1,-3,4.5%
23%,3%,CC(C)OCCCNc1ccc(N2C(=O)CCCC2=O)cc1[N+](=O)[O-],nt,0.1%
7%,-2%,CCN(c1ccccc1)S(=O)(=O)c1ccc(C(C(=O)OC)C(=O)OC)c([N+](=O)[O-])c1,1,-0.9%
16%,nt,O=c1oc(CCO)cc2ccccc12,nt,-1.5%
-3%,-52%,O=[N+]([O-])c1nn(-c2ccc3c(c2)OCCO3)n(O)c1=NCCC1=CCCCC1,0,4.2%
71%,-6%,CC1CC(C)CN(CCCNC(=O)CC2Oc3ccccc3NC2=O)C1 (stereo unspecified),-3,-4.2%

# Record cards, from the list above. Values in the order: Rango dissoc inh	miR-21 reporter	GLA inh pH 4.5	Rango-impB inh
# O=[N+]([O-])c1nn(-c2ccc3c(c2)OCCO3)n(O)c1=NCCC1=CCCCC1 is listed as -3%	-52%	0	4.2%
# CC1CC(C)CN(CCCNC(=O)CC2Oc3ccccc3NC2=O)C1 (stereo unspecified) is listed as 71%	-6%	-3	-4.2%
# CC(C)OCCCNc1ccc(N2C(=O)CCCC2=O)cc1[N+](=O)[O-] is listed as 23%	3%	nt	0.1%
# Cc1ccc(S(=O)(=O)Nc2cccc(C(=O)NCC(c3ccccc3)N(C)C)c2)cc1F (stereo unspecified) is listed as 6%	nt	nt	0.3%
# Cc1nc(SCc2c(F)cccc2Cl)n[nH]1 is listed as 7%	-27%	-5	0.9%

# New compounds follow:
Rango dissoc inh,miR-21 reporter,Structure,GLA inh pH 4.5,Rango-impB inh
0%,-11%,CC(Oc1ccccc1)C(=O)Nc1ccc(C(N)=O)cc1 (stereo unspecified),-1,0.0%
?,nt,CCN(CC)c1ccc2cc(-c3nc(-c4cc5ccccc5oc4=O)cs3)c(=O)oc2c1,nt,?
-5%,-7%,CCOc1ccccc1-n1nnnc1SC(C)C(=O)OC (stereo unspecified),13,-2.5%
8%,-2%,COC(=O)C(C)Sc1nnc(Cc2cc(=O)[nH]c(=O)[nH]2)n1-c1ccc(OC)cc1 (stereo unspecified),1,-1.6%
-4%,nt,CCCCc1nnc(NC(=O)c2oc3ccccc3c2C)s1,nt,-1.3%
1%,-14%,CCCOc1cccc(C(=O)NCCCNC(=O)c2cccnc2)c1,nt,?
-3%,nt,COc1ccccc1C=NN=Cc1ccccc1O,nt,5.1%
11%&18%,?,CN1CCN(CCCN2c3ccccc3Sc3ccc(Cl)cc32)CC1,0&1&-8&-7&4,15%&3.3%
13%,nt,CCn1cnc2c([N+](=O)[O-])c(NS(=O)(=O)c3ccc(C)cc3)ccc21,nt,-0.5%
?,-7%,O=C1C(Br)=Cc2cccc3cccc1c23,-5,?

# A portion of the library (hit frequency here may not be typical).
